Mtb H37Rv = Confirmatory growth inhibition assay against Mycobacterium tuberculosis H37Rv, potency (AID 1949); 100,000 compounds, 1.6% hits; inhibition, % at 10 µg/mL; hits with a dose series show IC50 in µg/mL; most inactive calls were filed without a number and no value below 0 was filed;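 active = confirmed in a dose series; inconclusive = about 50% or more but not retested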;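 also: bacteria grown 7 days with compound before Alamar blue readout; 0% = untreated bacteria and 100% = reference antibiotic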
The depositor's hits bear a star; i = inactive; ? = inconclusive. The list is partial; rates above refer to the full screens.

SMILES | Mtb H37Rv
COc1ccc(-c2cc(-c3ccc(Br)cc3)n3ncnc3n2)cc1 | i
CC1(C)Cc2c(sc3nc(SCc4ccc5ccccc5c4)n(-c4ccccc4)c(=O)c23)CO1 | 7.5%
CCn1c2ccccc2c2nnc(SCC(=O)Nc3nnc(C(C)C)s3)nc21 | i
C=CCn1c(SCC(=O)N2CCN(c3ccccc3)CC2)nnc1-c1ccccc1 | i
O=C(Nc1ccc(Cl)cc1)Nc1ccc(F)c(F)c1 | 0.94µg/mL*
S=C(Nc1ccc(Oc2ccccc2)cc1)N1CCOCC1 | i
COC(=O)c1ccccc1NC(=O)c1ccc(N(Cc2ccccc2C)S(C)(=O)=O)cc1 | i
Cc1n[nH]c(C)c1Cc1ccc(N)cc1 | i
CC1CCc2c(sc3ncn(CC(=O)OC4CCCCC4)c(=O)c23)C1 (stereo not given) | 10.1%
CCCNS(=O)(=O)c1cc(-c2nn3c(C)nnc3c3ccccc23)ccc1C | i
CN(c1ccccc1C(=O)NCc1ccccc1Cl)S(=O)(=O)c1ccccc1 | i
CCCCc1nnc(SCC(=O)Nc2ccc(C)cc2C)n1N | i
Cc1ccc(SC(C)C(=O)Nc2ccccc2C(N)=O)cc1 (stereo not given) | i
Cc1ccc(C(=O)Cn2cnc3sc4c(c3c2=O)CCC(C)C4)cc1 (stereo not given) | 1.0%
COc1cccc(OCCOc2ccc(Cl)cc2Br)c1 | 0.3%
O=C1c2ccccc2C(=O)N1c1n[nH]c(Cc2ccccc2)n1 | 0.3%
CCOC(=O)c1ccc(-n2c(=S)[nH]c3cc(C(=O)OC)ccc3c2=O)cc1 | 3.4%
CCn1c(SCC(=O)Nc2cc(Cl)ccc2OC)nnc1C(C)NC(=O)c1ccccc1Br (stereo not given) | i
CC1CCc2c(sc3ncn(CC(=O)Nc4c(C(C)C)cccc4C(C)C)c(=O)c23)C1 (stereo not given) | i
c1ccc(OCCNCCN2CCOCC2)cc1 | i
COc1cc(C2C3=C(CC(C)(C)CC3=O)NC3=C2C(=O)CC(C)(C)C3)c(Br)cc1O | i
COc1ccc(S(=O)(=O)Nc2cccc(C(C)=O)c2)c(Cl)c1Cl | i
CC(C)NS(=O)(=O)c1ccc(OCC(=O)NC(C)(C)C)c(Cl)c1 | i
CSc1nc(-c2ccc(Cl)cc2)nn1S(=O)(=O)c1ccc(C)cc1 | 4.9%
CC(C)CCn1cnc2c(NCc3ccccc3)ncnc21 | i
COc1ccc(C2=NN(C(C)=O)C(c3ccco3)C2)cc1OC (stereo not given) | 1.4%
Oc1ccc(NC(=S)N=Nc2c(O)[nH]c3ccccc23)cc1 | 24.8%
CCC(=O)Nc1cccc(Br)c1 | 10.0%
O=[N+]([O-])c1cccc(NC(=S)Nc2cc(OCC(F)(F)F)cc(OCC(F)(F)C(F)F)c2)c1 | 38.4%
CC(=O)Nc1scc(-c2ccc(C)c(C)c2)c1C(N)=O | i

A run of entries of the results above, for reference:
SMILES | Mtb H37Rv
Cc1ccc(SC(C)C(=O)Nc2ccccc2C(N)=O)cc1 (stereo not given) | i
Cc1ccc(C(=O)Cn2cnc3sc4c(c3c2=O)CCC(C)C4)cc1 (stereo not given) | 1.0%
COc1cccc(OCCOc2ccc(Cl)cc2Br)c1 | 0.3%
O=C1c2ccccc2C(=O)N1c1n[nH]c(Cc2ccccc2)n1 | 0.3%
CCOC(=O)c1ccc(-n2c(=S)[nH]c3cc(C(=O)OC)ccc3c2=O)cc1 | 3.4%
CCn1c(SCC(=O)Nc2cc(Cl)ccc2OC)nnc1C(C)NC(=O)c1ccccc1Br (stereo not given) | i
CC1CCc2c(sc3ncn(CC(=O)Nc4c(C(C)C)cccc4C(C)C)c(=O)c23)C1 (stereo not given) | i
c1ccc(OCCNCCN2CCOCC2)cc1 | i
COc1cc(C2C3=C(CC(C)(C)CC3=O)NC3=C2C(=O)CC(C)(C)C3)c(Br)cc1O | i
COc1ccc(S(=O)(=O)Nc2cccc(C(C)=O)c2)c(Cl)c1Cl | i
CC(C)NS(=O)(=O)c1ccc(OCC(=O)NC(C)(C)C)c(Cl)c1 | i
CSc1nc(-c2ccc(Cl)cc2)nn1S(=O)(=O)c1ccc(C)cc1 | 4.9%
CC(C)CCn1cnc2c(NCc3ccccc3)ncnc21 | i
COc1ccc(C2=NN(C(C)=O)C(c3ccco3)C2)cc1OC (stereo not given) | 1.4%
Oc1ccc(NC(=S)N=Nc2c(O)[nH]c3ccccc23)cc1 | 24.8%
CCC(=O)Nc1cccc(Br)c1 | 10.0%
O=[N+]([O-])c1cccc(NC(=S)Nc2cc(OCC(F)(F)F)cc(OCC(F)(F)C(F)F)c2)c1 | 38.4%
CC(=O)Nc1scc(-c2ccc(C)c(C)c2)c1C(N)=O | i

Carrying on.
SMILES | Mtb H37Rv
COc1ccccc1OCC(=O)O/N=C(\N)Cc1ccc(Cl)cc1Cl | i
CC(=O)c1ccc(NC(=O)CSc2ccc(F)cc2)cc1 | 7.95µg/mL*
COc1ccc(NC(=O)C(=O)NC(C)c2ccccc2)cc1 (stereo not given) | i
CCOc1ccc(C2CC(=O)NC(SCc3ccccc3Cl)=C2C#N)cc1 (stereo not given) | i
Cc1ccc(S(=O)(=O)Nc2cccc(C(=O)Nc3ccc(Br)cc3)c2)cc1 | i
O=C(CSc1nnnn1-c1ccccc1)Nc1ccc(Br)c(Cl)c1 | i
CN1CCN(C(=O)c2ccc(C(C)(C)C)cc2)CC1 | i
Cc1cc(C)nc(SCC(=O)c2ccc(Cl)cc2Cl)n1 | 0.5%
CC(=O)Nc1nnc(SCC(=O)Nc2ccc(F)cc2)s1 | 0.1%
O=C(c1ccc(NC(=S)NCc2ccc(F)cc2)cc1)N1CCCC1 | i
COc1ccc(S(=O)(=O)Nc2ccc(F)cc2F)cc1OC | i
CCn1c(SCC(=O)Nc2ccc(C(=O)O)cc2)nnc1-c1ccc(C)cc1 | i
COc1ccccc1C1NC(=S)NC(C)=C1C(=O)Nc1cccc(Cl)c1C (stereo not given) | i
CCCCC(=O)Nc1ccc(C(=O)N2CCCc3ccccc32)cc1 | 7.2%
COc1ccc(C(=O)Oc2ccccc2Cl)cc1Br | 9.7%
Cc1ccc(S(=O)(=O)N2CCN(CCOc3ccc(C(C)C)cc3)CC2)cc1 | 1.1%
O=C(O)c1cccc(NC(=S)NC(=O)c2ccccc2F)c1 | i
Cc1ccc(CSc2nc3c(c(=O)[nH]2)C(c2ccncc2)C2=C(CCCC2=O)N3)cc1 (stereo not given) | i
O=C(Nc1ccccc1F)C1CCN(C(=O)c2ccc(Cl)cc2)CC1 | i
CCOc1cc(C(=O)Nn2cnnc2)cc(OCC)c1OCC | i
CCC(=O)NC1(Cc2ccc(O)cc2)CCCCC1 | i
Cc1c(C(=O)N2CCc3ccccc32)oc2c1C(=O)CC(C)(C)C2 | i
CC(=O)c1cccc(NS(=O)(=O)c2cc(C(=O)Nc3ccc(C(=O)O)cc3)ccc2C)c1 | i
Cc1cc(Cl)c(OCCCCN2CCCC2)c(Br)c1 | i
CCCCCC(C)NC(=O)C(CC)Oc1ccccc1 (stereo not given) | i
Cc1cc(=O)[nH]c(SCc2cccc(Br)c2)n1 | i
O=C(CSc1nnc(NC(=O)C23CC4CC(CC(C4)C2)C3)s1)c1ccccc1 | 8.1%
CSc1nc2ccccc2n1Cc1ccccc1F | i
CCn1c(CNC(=O)Cc2ccc(OC)cc2)nnc1SCC(=O)Nc1ncc(C)s1 | i
COC(=O)c1ccc(C2C3=C(CC(c4ccco4)CC3=O)Nc3ccccc3N2C(=O)C2CC2)cc1 (stereo not given) | i
Cc1ccccc1NC(=O)COc1cc(C)c(Br)c(C)c1 | i
COCC(=O)N1CCN(c2cccc(C(F)(F)F)c2)CC1 | i
CCOc1ccc(N(CC(=O)N2CCN(c3ccccc3OC)CC2)S(=O)(=O)c2ccc(SC)cc2)cc1 | i
COc1ccc(C(=O)NC(=S)Nc2ccc3[nH]c(=O)[nH]c3c2)cc1[N+](=O)[O-] | i
COc1ccc(NC(=O)CSc2nc(C34CC5CC(CC(C5)C3)C4)ccc2C#N)cc1 | i
N#CC1=C(N)Oc2n[nH]c(-c3ccccc3F)c2C1c1ccc(Cl)cc1 (stereo not given) | 0.4%
COc1ccc(-c2nnc3c4ccccc4c(-c4ccccc4)nn23)cc1 | i
Cc1cc(C)nc(SCC(=O)c2ccc(F)c(C)c2)n1 | i
COc1cc(OC)cc(C(=O)OCc2ccccc2)c1 | i
N#C/C(=C\c1ccc(-c2cc(Cl)ccc2Cl)o1)C(=O)Nc1cc(Cl)ccc1Cl | i
COC(=O)c1ccc(C2/C(=C(\O)c3cnn(-c4ccccc4)c3C)C(=O)C(=O)N2Cc2cccnc2)cc1 (stereo not given) | i
O=C(CN(c1cccc([N+](=O)[O-])c1)S(=O)(=O)c1ccccc1)Nc1ccccc1C(=O)NCc1ccco1 | i
O=c1oc2cc3occ(-c4ccc5c(c4)OCO5)c3cc2c2c1CCCC2 | 0.1%
COc1ccc(S(=O)(=O)Nc2ccccn2)c(C)c1C | i
C=CCn1c(NCc2ccc(OC)c(OC)c2)nc2ccccc21 | i
Cc1nc(C)n(CC(O)COc2ccc(C(=O)c3ccccc3)cc2)n1 (stereo not given) | i
CC1CC(C)CN(C2CCN(C(=O)c3cccs3)CC2)C1 (stereo not given) | i
Cc1ccc(-c2ccc(/C=C(\C#N)C(N)=S)o2)cc1 | i
CC(C)Oc1ccc(C2C(C(=O)c3ccco3)=C(O)C(=O)N2CCCN2CCOCC2)cc1 (stereo not given) | i
Cc1nc2ccc(C(=O)N3CCN(c4ccccn4)CC3)cc2s1 | 0.1%
CC(C)(C)NC(=O)c1ccc(NS(=O)(=O)c2ccc([N+](=O)[O-])cc2)cc1 | i
Cc1cc2nnc(SCc3cccc4ccccc34)n2c2ccccc12 | 11.9%
COc1cc(C=O)ccc1OCCOCCOc1ccccc1Cl | 1.9%
COC(=O)C1=C(C)n2cnnc2NC1c1cc(Br)ccc1OCc1ccccc1 (stereo not given) | i
CC(=O)c1cccc(NC(=O)c2cc3nc(C)cc(C)n3n2)c1 | i
Cc1ccc(-c2noc(-c3ccncc3)n2)cc1 | i
O=C(Nc1ccc(OCc2ccccc2)cc1)c1ccccc1F | i
O=C(COc1ccc(F)cc1)NCCN1CCCC1 | i
O=C(CNS(=O)(=O)c1ccc(Cl)cc1)Nc1ccc(Cl)cc1 | i
CCc1c(C)sc(NC(=S)Nc2ccc(S(=O)(=O)N3CCCC3)cc2)c1C(=O)OC | i
(more compounds)
SMILES | Mtb H37Rv
O=C(CSCCO)N1CCc2ccccc21 | i
CC1(C)CC(NC(=O)C23CC4CC(CC(C4)C2)C3)CC(C)(C)N1 | i
Cc1ccc(S(=O)(=O)N(CC(=O)Nc2c(C)cc(C)cc2C)c2ccc(C)c(C)c2)cc1 | i
CS(=O)(=O)N(CC(=O)N1CCC(C(N)=O)CC1)c1ccc(F)cc1 | i
CCN(CC)c1nc(C)nc2sc(C(=O)O)c(C)c12 | i
O=c1[nH]c2cc3nc(C(F)(F)C(F)(F)F)[nH]c3cc2[nH]1 | 0.5%
NS(=O)(=O)c1ccc(NC(=S)N2CCN(C/C=C/c3ccccc3)CC2)cc1 | i
Fc1ccccc1C1C=C(c2cccs2)Nc2nnnn21 (stereo not given) | i
Cc1ccc(C(=O)NCc2ccc(Cl)cc2Cl)cc1 | i
Nc1ncnc(Oc2ccc(Cl)cc2)c1[N+](=O)[O-] | 0.9%
CCCC(=O)NCc1nc2ccccc2n1Cc1ccc(C)cc1 | 0.8%
O=S(=O)(Nc1ccc(S(=O)(=O)N2CCCC2)cc1)c1cccs1 | i
CCN(CC)c1ccc(CNc2nc3ccccc3n2C)cc1 | 0.4%
CCOC(=O)c1ccc(NC(=S)NNC(=O)C2(C)CC2(Cl)Cl)cc1 (stereo not given) | i
O=C1CC(N2CCCC2)C(=O)N1c1ccc(Oc2ccccc2)cc1 (stereo not given) | i
CN(c1cccc(NC(=O)c2ccccc2N(Cc2ccccc2)S(C)(=O)=O)c1)S(C)(=O)=O | i
COc1ccc(-c2noc(CSc3nnc(-c4ccco4)n3-c3ccccc3)n2)cc1 | i
Cc1cc(C)cc(OCC(=O)O/N=C(\N)c2ccccn2)c1 | i
COc1cccc(Nc2ccc(Nc3cccc(OC)c3)nn2)c1 | 9.3%
COc1cc(NC(=S)NC(=O)c2ccc(C)cc2C)ccc1NC(=O)c1ccco1 | i
CC(=O)c1c(C)nc2cc(Cl)ccc2c1N | i
Cc1sc2nc(SCC(=O)Nc3ccc4c(c3)OCCO4)n(-c3ccccc3)c(=O)c2c1C | i
Cc1ccc([N+](=O)[O-])cc1N1C(=O)CCC1=O | i
Cc1cc(Br)c(NC(=O)CSc2ncn(-c3ccccc3)n2)cc1C | 0.2%
COc1ccc(OC)c(S(=O)(=O)N2CCN(C(=O)c3ccco3)CC2)c1 | i
NC(=O)C1CCN(C(=O)CN2CCN(C(c3ccccc3)c3ccccc3)CC2)CC1 | i
CN(C)C(=O)C12CCC(C)(c3nc4cc(Cl)c(Cl)cc4nc31)C2(C)C (stereo not given) | ?
CC(c1ccccc1)n1c(-c2ccncc2)n[nH]c1=S (stereo not given) | i
Cc1cc(=O)oc2cc(NC(=S)NNC(=O)c3ccco3)ccc12 | i
Cc1ccc(CC(=O)Nc2cc(C)on2)cc1 | i
Cc1ccc(-n2nnnc2SCc2ccc(C(=O)O)cc2)cc1C | i
COc1cccc(CNC(=S)NC2CCCC2)c1 | i
COc1ccccc1NC(=O)CNC(=O)c1ccccc1C | i
CC(C)Cn1c(Oc2ccc(Cl)cc2)nc2c1c(=O)n(C)c(=O)n2C | 6.5%
COC(=O)c1cn(CC(N)=O)c2ccccc12 | i
CC(C)(C)c1ccccc1NC(=O)C1CCCCC1 | i
COC(=O)c1ccccc1NC(=O)C(C)N(c1ccc(Oc2ccccc2)cc1)S(C)(=O)=O (stereo not given) | 0.2%
CC1=C(C#N)C(NC(=O)C2CC2)(C(F)(F)F)C(=O)N1 (stereo not given) | 0.3%
O=C(Nc1nc(-c2ccccc2)cs1)c1cccc(S(=O)(=O)N2CCCCCC2)c1 | 25.9%
CCCOCCOC(=O)C1=C(C)NC2=C(C(=O)CCC2)C1c1ccc(F)c(F)c1 (stereo not given) | 0.5%
Cc1ccc(C(=O)Nc2ccccc2C(=O)NCCCO)cc1 | i
CCC(=O)c1ccc(OCc2c(F)cccc2Cl)cc1 | 5.4%

High-throughput results from PubChem.
